Bioassay records from PubChem.
Yeast UUG start – alters start codon recognition fidelity in yeast | S. cerevisiae UUG-firefly luciferase reporter, luminescence/redox ratio | activity score, % at 18.7 µM | 350,000 compounds, 0.13% hits | AID 602363;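 active = replicate mean at a twofold rise or more, about +100% in these data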;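 note: firefly luciferase made from a UUG start codon reports start codon fidelity; reporter light over untreated wells divided by growth signal over untreated wells; some hits fall short of that in this replicate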
CSC inhib – blocks cancer stem cells; cancer stem cell-like cells viability, luminescence; inhibition, % at 7.5 µM; 300,000 compounds, 1.1% hits;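 active = mean at 75% or more and at least half the replicates too; tested in HMLE shEcad cells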;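 note: 0% = median of negative and 100% = median of positive control wells; the first replicate is given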
MT1-MMP act inh – MT1-MMP (human) activation inhibition. HT1080 RFP-PRO-GFP cells, GFP/RFP ratio fluorescence, overnight; percent of plate control window, DMSO zero. 360,000 compounds, 0.061% hits. GFP/RFP ratio change, % at 20 µM. P50281;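 active = GFP/RFP ratio change of at least 30% with cell ATP level not reduced by more than half and red fluorescence within 50% of control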; note: strong numbers were not always called active
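Assay system – RFP-PRO-GFP reporter HT1080 cells · Compound dosing – single dose of 20 µM compound, 1% DMSO final · Incubation – overnight compound exposure at 37 °C · Measure – GFP/RFP fluorescence ratio · Benchmarks – DMSO wells and RFP-L50D-GFP cells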
Env fusion inh – inhibitors of HIV Env-mediated cell fusion. HeLa-JRFL Env/CEM21 cell fusion, luciferase. inhibition, % at 12.3 µM. 360,000 compounds, 1.1% hits;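 active = mean replicate inhibition score of at least 50 and every replicate individually at or above 50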;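 note: 0% = plate neutral controls and 100% = maraviroc near 300 nM; one replicate is shown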
PABP polyA inh – blocks human PABP binding to poly(A) RNA. fluorescence polarization. inhibition, % at 35 µM. 290,000 compounds, 1% hits;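 active = 50% or more with normal probe brightness, or confirmed in later tests; about a fifth of its hits are not listed in these tables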;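 note: calls also rest on retests at 20 µM and on dose response follow-up; controls were probe without protein and protein plus probe with vehicle; some compounds called inactive have numbers as strong as hits; many hits fall short of the cut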
Target sequence (P11940 whole entry, looked up): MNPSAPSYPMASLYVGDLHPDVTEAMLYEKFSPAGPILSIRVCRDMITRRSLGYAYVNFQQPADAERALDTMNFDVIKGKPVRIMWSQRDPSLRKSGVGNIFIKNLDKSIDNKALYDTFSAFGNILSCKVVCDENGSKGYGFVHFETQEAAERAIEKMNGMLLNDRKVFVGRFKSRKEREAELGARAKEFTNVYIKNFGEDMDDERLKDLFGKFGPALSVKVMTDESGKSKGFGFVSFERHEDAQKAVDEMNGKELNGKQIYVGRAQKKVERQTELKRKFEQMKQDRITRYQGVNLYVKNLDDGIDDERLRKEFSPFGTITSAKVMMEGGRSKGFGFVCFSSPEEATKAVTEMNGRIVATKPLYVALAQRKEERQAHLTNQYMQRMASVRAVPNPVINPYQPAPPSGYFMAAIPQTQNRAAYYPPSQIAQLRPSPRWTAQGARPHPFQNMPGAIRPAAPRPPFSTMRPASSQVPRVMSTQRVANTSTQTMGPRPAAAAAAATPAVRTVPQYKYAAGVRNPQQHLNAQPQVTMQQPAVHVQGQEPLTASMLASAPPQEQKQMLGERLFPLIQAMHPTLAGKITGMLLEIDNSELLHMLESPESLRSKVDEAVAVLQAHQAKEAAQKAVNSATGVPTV
Rce1 inh – yeast Ras-converting enzyme inhibition; yeast membranes, quenched prenylated peptide cleavage fluorescence; calls only; Q03530; 290,000 compounds, 0.27% hits;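 active = fall in fluorescence gain of 50% or more versus controls, with final raw signal at or below 3038400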;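 note: plate controls were neutral control wells for no effect and wells lacking membranes for full effect; tested at 10 µM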
eIF4H inh – inhibitors of RNA binding by human eIF4H; Q15056; eIF4H fluorescence polarization binding assay; inhibition, % at 35 µM; 290,000 compounds, 0.94% hits; AID 2012;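 active = 50% or more with normal probe brightness, or confirmed in later tests; about a fifth of its hits are not listed in these tables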;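 note: calls also rest on retests at 20 µM and on dose response follow-up; 0% = protein and probe with vehicle and 100% = probe without protein; strong numbers were not always called active; many hits fall short of the cut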
MT1-MMP act inh RFP – recorded beside MT1-MMP act inh, whose call it bears; RFP signal change, %; measured here: RFP expression control read;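 0 = vehicle wells; hits needed this value within 50% of zero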
Numbers without * were called inactive; i = inactive; · = no result given; & = joins results of further samples; [ ] = another dose, or the depositor's remark. This is a subset; rates above refer to the full screens.

Value order: Yeast UUG start | CSC inhib | MT1-MMP act inh | MT1-MMP act inh RFP | Env fusion inh | PABP polyA inh | Rce1 inh | eIF4H inh
1) COc1ccc(S(=O)(=O)N2CCNCC2)cc1
    -17 | -7 | 1 | 3 | -22 | -4 | · | 5
2) N#Cc1c(SCC(N)=O)nc2c(c1-c1ccc(O)cc1)CCCC2
    -12 | -11 | -5 | -5 | · | 12 | i | -2
3) O=C(COc1cccc(Br)c1)N/N=C1\CCCc2ccccc21
    -3 | 6 | 2 | 2 | 12 | 2 | i | -4
4) O=C(O)CN1C(=O)SC(Nc2ccccc2C(=O)O)C1=O (configuration not stated)
    -13 | 7 | -1 | 3 | · | 20 | i | -5
5) O=S(=O)(N/N=C\c1cn(-c2ccccc2)nc1-c1ccccc1)c1ccccc1
    · | 8 | 6 | 2 | · | -3 | i | 1
6) Cc1cc(CC(=O)O)c2oc(-c3ccoc3)cc(=O)c2c1
    · | -6 | · | · | 7 | · | i | ·
7) Brc1cccc(CNCc2ccncc2)c1
    -11 | -5 | -1 | 0 | -12 | 0 | i | -1
8) Cc1ccc(C2CCN(C(=S)NC(C)C)C2)cc1 (configuration not stated)
    -9 | 1 | 2 | 0 | 6 | 29 | i | 2
9) O=C1C(=O)N(CCCN2CCOCC2)C(c2ccc(Cl)cc2)/C1=C(/O)c1ccc(F)cc1 (configuration not stated)
    -13 | -7 | 1 | 3 | -6 | -9 | i | -12
10) O=[N+]([O-])c1cccnc1N1CCN(Cc2ccc3c(c2)OCO3)CC1
    -3 | -5 | 1 | 2 | -5 | 12 | i | 3
11) C/C(Cc1ccccc1)=N\NC(=O)c1ccccn1
    -31 | -2 | -2 | -1 | -13 | 2 | i | 2
12) CC1(N2CCOCC2)C(=O)c2ccccc2C1=O
    · | 6 | 4 | 4 | 6 | 3 | i | 0
13) Cc1ccc(NC(=O)C[n+]2ccn(C3=C([O-])c4ccccc4C3=O)c2)cc1
    · | -4 | 1 | -5 | 13 | -2 | i | -7
14) O=C(NCC1CCCO1)c1cccc(F)c1 (configuration not stated)
    -16 | -5 | 4 | 8 | · | 2 | i | -1
15) COc1ccc(N2C(=O)Cc3c2nc(N)c(C#N)c3N)cc1
    -13 | -13 | -1 | 0 | 18 | 5 | i | -3

Part of the list above, screen by screen:
(8) Cc1ccc(C2CCN(C(=S)NC(C)C)C2)cc1 (configuration not stated)
(9) O=C1C(=O)N(CCCN2CCOCC2)C(c2ccc(Cl)cc2)/C1=C(/O)c1ccc(F)cc1 (configuration not stated)
(10) O=[N+]([O-])c1cccnc1N1CCN(Cc2ccc3c(c2)OCO3)CC1
(11) C/C(Cc1ccccc1)=N\NC(=O)c1ccccn1

entry no. | 8 | 9 | 10 | 11
Yeast UUG start | -9 | -13 | -3 | -31
CSC inhib | 1 | -7 | -5 | -2
MT1-MMP act inh | 2 | 1 | 1 | -2
MT1-MMP act inh RFP | 0 | 3 | 2 | -1
Env fusion inh | 6 | -6 | -5 | -13
PABP polyA inh | 29 | -9 | 12 | 2
Rce1 inh | i | i | i | i
eIF4H inh | 2 | -12 | 3 | 2

The list goes on.
Value order: Yeast UUG start | CSC inhib | MT1-MMP act inh | MT1-MMP act inh RFP | Env fusion inh | PABP polyA inh | Rce1 inh | eIF4H inh
16) COCCN(Cc1nnc(-c2cccs2)o1)C(=O)c1cccc(S(=O)(=O)N2CCOCC2)c1
    -15 | -5 | 3 | 2 | · | · | · | ·
17) CCCCC(=O)Nc1ccc(C(=O)NNC(=S)NC(=O)c2cccs2)cc1
    -17 | 3 | 2 | -5 | · | 4 | i | 8
18) CC(C)CC(=O)Nc1ccc(-c2cn3ccsc3n2)cc1
    -39 | 5 | -5 | -6 | · | 3 | · | 3
19) O=C(CSc1nc2ccccc2n1CC(=O)N1CCOCC1)N1CCCC1
    -8 | -27 | 1 | 2 | -39 | -8 | · | -1
20) Cc1c(C(=O)Nc2ccccc2)sc2nc[nH]c(=O)c12
    -6 | -2 | -4 | 2 | 8 | 3 | i | 26
21) CC(C)[C@H](NC(=O)c1ccccc1)C(=O)OCC(=O)NCCc1ccc(F)cc1
    -15 | -6 | 4 | 4 | -3 | 14 | i | -6
22) COc1cc(/C=N/N2CCOCC2)ccc1OCc1ccccc1
    · | 7 | -3 | -1 | -40 | 11 | i | 1
23) O=Cc1c(Nc2ccccc2Cl)nc2ccccn2c1=O
    0 | -9 | 0 | -1 | 1 | -7 | i | 3
24) CCOC(=O)C(NC(=O)NCc1ccc(OC)cc1)(OCC)C(F)(F)F (configuration not stated)
    · | -10 | 1 | 0 | -5 | 3 | i | 1
25) CC(CN1CCCC1)OC(=O)COc1ccccc1 (configuration not stated)
    -8 | 3 | -2 | 7 | -20 | 16 | i | -16
26) Cc1ccc(S(=O)(=O)N2CCN(S(=O)(=O)c3ccccc3)C2)cc1
    -12 | · | -3 | 1 | -2 | -2 | i | 1
27) CC(=O)NS(=O)(=O)c1ccc(NC(=O)c2cccc3ccccc23)cc1
    -21 | -11 | 2 | 4 | -7 | · | i | ·
28) Cc1cccc(NC(=S)NC2CCCC2)c1
    · | -6 | 4 | 4 | -7 | -1 | i | -1
29) C=CCn1c(SCC(=O)N2CC(=O)Nc3ccccc32)nc2scc(-c3ccccc3)c2c1=O
    -14 | · | -8 | -7 | -81 | 1 | i | 12
30) Cc1ccc2ccc(C(Nc3cccc(C(F)(F)F)c3)c3cccnc3)c(O)c2n1 (configuration not stated)
    -15 | 4 | 1 | 4 | -3 | 15 | i | 14
31) COc1ccccc1C(=O)N/N=C/C(C)=C/c1ccccc1
    -5 | -18 | 3 | 4 | -41 | 1 | i | -8
32) COc1ccc(/C=C/C(=O)c2ccc(OC)cc2O)cc1
    -8 | 15 | 1 | -2 | -19 | -18 | i | 3
33) Cc1cccc(NC(=O)COC(=O)CSc2ccccc2)c1C
    9 | -13 | -2 | 6 | · | · | · | ·
34) N#Cc1ccccc1NC(=O)CN1CCN(c2ccccn2)CC1
    -10 | -12 | 1 | 2 | -1 | -2 | i | 5
35) COc1ccccc1N(C1=NCCCS1)S(=O)(=O)c1ccc(C(C)(C)C)cc1
    · | 1 | -18 | -10 | 9 | -8 | i | -3
36) Cc1cccc(Cn2c(Cc3ccccc3)nc3ccccc32)c1
    -20 | · | 2 | 1 | · | -2 | i | -5
37) CN(c1ccccc1C(=O)Nc1ccc(S(=O)(=O)N2CCOCC2)cc1)S(=O)(=O)c1ccccc1
    · | 0 | -1 | 3 | -4 | -10 | i | 3
38) CCOC(=O)c1cc(CC)sc1NC(=O)CN1C(=O)C(=O)N(CC(C)C)C1=O
    4 | 10 | 1 | 3 | -7 | · | i | ·
39) O=[N+]([O-])c1cc(-c2cccnc2)n[nH]1
    -3 | · | 1 | 2 | -11 | · | · | ·
40) CN(CC(=O)Nc1cccc(F)c1)CC(=O)Nc1cccc(S(=O)(=O)N2CCCCCC2)c1
    4 | 10 | 6 | -9 | 44 | 3 | i | -6
41) C[C@H]1CN([C@@H](C)CO)C(=O)CCCn2cc(nn2)CO[C@@H]1CN(C)C(=O)Cc1ccccc1
    5&8 | · | -1 | 5 | 5 | · | · | ·
42) CCOc1cccc(C(=O)N(Cc2ccc(F)cc2)C2CCS(=O)(=O)C2)c1 (configuration not stated)
    -2 | · | 8 | 3 | · | -3 | i | 1
43) O=C(Cn1cc([N+](=O)[O-])cn1)N1CCN(c2ccccc2)CC1
    -4 | -9 | 1 | 0 | 1 | -4 | i | 1
44) Cc1cc2[nH]c(=O)c(=O)[nH]c2cc1S(=O)(=O)Nc1ccccc1F
    -22 | · | 0 | 2 | -16 | -9 | i | 1
45) O=C(CCN1CCCC1=O)NC1CCCc2c1cnn2-c1ccccc1F (configuration not stated)
    -4 | 13 | -3 | -6 | 1 | -1 | i | -13
46) COc1ccc(CC(C)NS(=O)(=O)c2ccc3c(c2)CCN3S(C)(=O)=O)cc1OC (configuration not stated)
    4 | -3 | 1 | 1 | 2 | 11 | i | 0
47) Cc1nn(C)c(C)c1NC(=O)CCl
    -15 | -4 | 10 | 5 | 4 | 8 | i | -3
48) COc1ccc(NC(=O)Nc2ccc(OC)cc2)cc1
    -6 | 9 | 6 | 3 | · | 4 | i | -6
49) Cc1ccc(C(=O)NC(=S)Nc2ccccc2C)cc1
    · | 9 | 5 | 1 | -16 | -5 | · | -6
50) COCCN1C[C@@H](CO)O[C@@H](n2cnc3c(NCC(C)C)ncnc32)C1
    0 | · | -5 | 1 | 0 | · | · | ·
51) COc1cc(NC(=O)c2cc3ccccc3o2)c(OC)cc1Cl
    -11 | · | -1 | 2 | · | 2 | i | -2
52) CC[C@@H](C(=O)[C@@H](C)[C@@H](O)[C@H](C)CCc1ccc(C)c(O)c1C(=O)O)[C@H]1O[C@](CC)([C@H]2CC[C@](O)(CC)[C@H](C)O2)C[C@@H]1C
    -15 | 117* | -6 | -34 | 16 | -3 | i | 7
53) CSc1ccc(/C=C/C(=O)c2ccc(NC(=O)C(C)C)cc2)cc1
    · | -9 | 1 | 0 | · | -17 | i | -16
54) C#CCNC(=O)C1=C[C@@H](C(C)(C)C)C[C@@H](OCc2ccc(CO)cc2)O1
    3&-5 | 2 | 2 | -3 | 28[16.7 µM] | 2 | i | -8
55) CCCn1c(C2CCCN2c2nc(C)cs2)nc2cc(Cl)c(Cl)cc21 (configuration not stated)
    -6 | 0 | -1 | 0 | 70* | -14 | i | 3
56) COc1ccc(NC(=O)CN2CCN(CC(=O)Nc3ccc4c(c3)OCO4)CC2)cc1
    -35 | 13 | 7 | 8 | · | -14 | · | -4
57) CSc1cccc(NC(=O)OC2CCCCCCCCCCC2)c1
    -21 | 10 | 1 | 1 | -1 | -3 | i | 0
58) CCn1nc(NC(=O)Cc2ccc(OC)cc2)c2cc3cccc(C)c3nc21
    -15 | 7 | 6 | -3 | -18 | -2 | i | -1
59) COc1ccc(N2CCN(S(=O)(=O)CCNC(=O)COc3ccccc3C)CC2)cc1
    -18 | 5 | -4 | -1 | -117 | · | i | ·
60) O=C(Nc1ccc(N2CCCCC2)cc1)c1ccccc1
    -33 | 4 | 7 | 4 | · | -1 | i | -1
61) O=S(=O)(c1ccc(NC(=S)NN=C2CCCCC2)cc1)N1CCOCC1
    · | 3 | 5 | 7 | 8 | -5 | i | -10
62) COc1ccc(CCNC(=O)c2ccc(OCC(=O)N3CCOCC3)c(OC)c2)cc1OC
    -15 | 1 | -7 | -3 | 13 | -5 | i | -6
63) Cc1cc(C)c(C#N)c(SC(C(=O)NC(C)(C)C)c2ccccc2)n1 (configuration not stated)
    · | -4 | -3 | -2 | 20 | -12 | i | -3
64) Cn1cc(S(=O)(=O)N2CCCC2)cc1C(=O)Nc1cccc(C(F)(F)F)c1
    -11 | -8 | -1 | -3 | 19 | -1 | i | 0
65) NC(=O)CC(NC(=O)c1ccccc1)c1ccc(N2CCC(N3CCCC3)CC2)c([N+](=O)[O-])c1 (configuration not stated)
    -13 | -9 | 1 | 6 | -227 | -5 | i | -9
66) COC(=O)c1ccc(OCC(O)CN(CCO)CC(O)Cn2ccc3ccccc32)cc1 (configuration not stated)
    · | -6 | 3 | -5 | -11 | 22 | · | 1
67) O=C(Nc1ccc(N2CCCC2)cc1)c1ccc(Br)o1
    -9 | 7 | -2 | -2 | · | 25 | i | 6
68) CCCC(=O)Nc1nc(C)c(-c2csc(Nc3ccccc3C)n2)s1
    -11 | 5 | -5 | 3 | -16 | 1 | i | -10
69) O=C(Nc1nc2ccc(Cl)cc2s1)c1ccc(N2CCCCC2)c([N+](=O)[O-])c1
    -17 | 15 | -3 | 2 | 21 | -11 | i | 0
70) CC(=O)C1=C(C)NC(=S)NC1c1cccc([N+](=O)[O-])c1 (configuration not stated)
    · | 15 | 0 | 1 | -3 | -4 | i | 11
71) Cc1occc1-c1nnc(-c2cc([N+](=O)[O-])cc([N+](=O)[O-])c2)o1
    · | -5 | 6 | 2 | -15 | 7 | i | 25
72) COC(=O)COc1cccc2c(=O)n(CC(=O)NCCc3ccccc3)ccc12
    -17 | 1 | 1 | 2 | 2 | 0 | · | -1
